eIF4H FP inh – inhibitors of RNA binding by human eIF4H | AID 2012 | inhibition, % at 35 µM | eIF4H fluorescence polarization binding assay | Q15056 | hit rate 0.94% among 290,000;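 active = 50% or more with normal probe brightness, or confirmed in later tests; inconclusive = above 50% with abnormal brightness, or retests that disagree; inactive = below 50% or failed in later tests; about a fifth of its hits are not listed in these tables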;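 note: calls also rest on retests at 20 µM and on dose response follow-up; 0% = protein and probe with vehicle and 100% = probe without protein; strong numbers were not always called active; many hits fall short of the cut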
PABP polyA inh – blocks human PABP binding to poly(A) RNA | hit rate 1% among 290,000 | P11940 | inhibition, % at 35 µM | AID 2014 | fluorescence polarization;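 active = 50% or more with normal probe brightness, or confirmed in later tests; inconclusive = above 50% with abnormal brightness, or retests that disagree; inactive = below 50% or failed in later tests; about a fifth of its hits are not listed in these tables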;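 note: calls also rest on retests at 20 µM and on dose response follow-up; controls were probe without protein and protein plus probe with vehicle; some compounds called inactive have numbers as strong as hits; many hits fall short of the cut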
Env fusion inh – blocks HIV Env-driven cell-cell fusion. HeLa-JRFL Env/CEM21 cell fusion, luciferase. inhibition, % at 12.3 µM. hit rate 1.1% among 360,000. AID 651610;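 active = mean replicate inhibition score of at least 50 and every replicate individually at or above 50; inconclusive = only one of the two criteria met; inactive = mean below 50 and not all replicates reaching 50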;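 note: 0% = plate neutral controls and 100% = maraviroc near 300 nM; one replicate is shown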
CSC inhib – blocks cancer stem cells | AID 2717 | cancer stem cell-like cells viability, luminescence | inhibition, % at 7.5 µM | hit rate 1.1% among 300,000;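 active = mean at 75% or more and at least half the replicates too; inconclusive = mean and replicates disagree; tested in HMLE shEcad cells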;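 note: 0% = median of negative and 100% = median of positive control wells; the first replicate is given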
Rce1 inh – yeast Ras-converting enzyme inhibition | yeast membranes, quenched prenylated peptide cleavage fluorescence | AID 2563 | hit rate 0.27% among 290,000 | calls only | Q03530;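 active = fall in fluorescence gain of 50% or more versus controls, with final raw signal at or below 3038400; inconclusive = same 50% fall but final raw signal above 3038400; inactive = fall in fluorescence gain under 50%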;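 note: plate controls were neutral control wells for no effect and wells lacking membranes for full effect; tested at 10 µM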
Target sequence (Q03530 whole entry, looked up): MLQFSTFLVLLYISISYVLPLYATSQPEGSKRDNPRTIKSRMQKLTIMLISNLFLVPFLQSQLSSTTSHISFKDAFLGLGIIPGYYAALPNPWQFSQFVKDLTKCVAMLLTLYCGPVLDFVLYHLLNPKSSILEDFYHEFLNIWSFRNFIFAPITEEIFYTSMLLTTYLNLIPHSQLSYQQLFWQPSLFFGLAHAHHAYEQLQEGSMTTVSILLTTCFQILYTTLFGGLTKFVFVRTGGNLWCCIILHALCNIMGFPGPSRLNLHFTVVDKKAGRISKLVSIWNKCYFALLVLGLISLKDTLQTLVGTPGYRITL
Yeast UUG start – modulators of start codon recognition fidelity in yeast | S. cerevisiae UUG-firefly luciferase reporter, luminescence/redox ratio | activity score, % at 18.7 µM | hit rate 0.13% among 350,000 | AID 602363;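 active = replicate mean at a twofold rise or more, about +100% in these data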;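 note: firefly luciferase made from a UUG start codon reports start codon fidelity; reporter light over untreated wells divided by growth signal over untreated wells; some hits fall short of that in this replicate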
MT1-MMP act inh – blocks activation of human MT1-MMP; P50281; HT1080 RFP-PRO-GFP cells, GFP/RFP ratio fluorescence, overnight; percent of plate control window, DMSO zero; GFP/RFP ratio change, % at 20 µM; AID 651647; hit rate 0.061% among 360,000;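 active = GFP/RFP ratio change of at least 30% with cell ATP level not reduced by more than half and red fluorescence within 50% of control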; note: strong numbers were not always called active
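Assay system – RFP-PRO-GFP reporter HT1080 cells · Compound dosing – single dose of 20 µM compound, 1% DMSO final · Incubation – overnight compound exposure at 37 °C · Measure – GFP/RFP fluorescence ratio · Benchmarks – DMSO wells and RFP-L50D-GFP cells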
MT1-MMP act inh RFP – recorded beside MT1-MMP act inh, whose call it bears; RFP signal change, %; measured here: RFP expression control read;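 0 = vehicle wells; hits needed this value within 50% of zero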
* = called active by the depositor; i = inactive; ? = inconclusive; . = not tested or not shown; & = joins results of further samples. Only part of the results is shown; rates above refer to the full screens.

SMILES	eIF4H FP inh	PABP polyA inh	Env fusion inh	CSC inhib	Rce1 inh	Yeast UUG start	MT1-MMP act inh	MT1-MMP act inh RFP
CCc1cccc(CC)c1NC(=O)CN(CC(=O)O)CC(=O)O	.	.	11	5	.	-17	3	0
O=C(c1ccccn1)N(Cc1cccs1)C1(C(=O)NC2CCCCC2)CCCCC1	-5	9	15	.	i	25	-6	0
Nc1c2ccccc2nc2ccccc12	5	-2	-76&-2	63&46	i	25&-14	4&0	0&-6
O=C(O)c1cc(=O)c2ccccc2o1	0	-2	-2	-23	i	-9	0	5
CCN(CCCCOC(=O)c1ccc(OC)c(OC)c1)C(C)Cc1ccc(OC)cc1 (configuration not stated)	-11	-4	-2	-3	i	-11	-3	-3
Cc1nc2c3ccccc3nc(NNC(=O)CCC(=O)N3CCN(c4ccccc4F)CC3)n2n1	1	2	14	-7	i	-1	-4	0
CC(C)NNC(=O)c1ccncc1	-2	-1	-1	-20	i	-13	-2	3
CCCOc1ccc(C(=O)OCCN(CC)CC)cc1N	.	.	-8	56	i	-14	0	6
CN[C@@H]1[C@H](O)[C@H](NC)[C@H]2O[C@@]3(O)C(=O)C[C@@H](C)O[C@H]3O[C@@H]2[C@H]1O	3	7	8	-2	i	-4	-1	0
COc1ccc(-c2oc3c(CC=C(C)C)c(O[C@@H]4O[C@H](CO)[C@@H](O)[C@H](O)[C@H]4O)cc(O)c3c(=O)c2O[C@@H]2O[C@@H](C)[C@H](O)[C@@H](O)[C@H]2O)cc1	13	-2	.	-2	i	.	.	.
CN(C)S(=O)(=O)n1cc(/C=C(\NC(=O)c2ccccc2)C(=O)NCCCn2ccnc2)c2ccccc21	-7	-4	11	7	i	-8	3	1
CC(Cc1cccc(C(F)(F)F)c1)NCCOC(=O)c1ccccc1 (configuration not stated)	.	.	2&-18	-7&-6	i	32&-5	0&1	1&-2

Four entries from above, set out differently.
smiles | eIF4H FP inh | PABP polyA inh | Env fusion inh | CSC inhib | Rce1 inh | Yeast UUG start | MT1-MMP act inh | MT1-MMP act inh RFP
CN(C)S(=O)(=O)n1cc(/C=C(\NC(=O)c2ccccc2)C(=O)NCCCn2ccnc2)c2ccccc21 | -7 | -4 | 11 | 7 | i | -8 | 3 | 1
O=C(O)c1cc(=O)c2ccccc2o1 | 0 | -2 | -2 | -23 | i | -9 | 0 | 5
O=C(c1ccccn1)N(Cc1cccs1)C1(C(=O)NC2CCCCC2)CCCCC1 | -5 | 9 | 15 | . | i | 25 | -6 | 0
CCN(CCCCOC(=O)c1ccc(OC)c(OC)c1)C(C)Cc1ccc(OC)cc1 (configuration not stated) | -11 | -4 | -2 | -3 | i | -11 | -3 | -3

Carrying on.
SMILES	eIF4H FP inh	PABP polyA inh	Env fusion inh	CSC inhib	Rce1 inh	Yeast UUG start	MT1-MMP act inh	MT1-MMP act inh RFP
CCCC(=O)O[C@]1(C(=O)CCl)[C@@H](C)C[C@H]2[C@@H]3CCC4=CC(=O)C=C[C@]4(C)[C@@]3(F)C(=O)C[C@@]21C	3	-4	i	-1	i	-2	-9	-20
CCCC1(c2ccccc2)NC(=O)N(CC(=O)N(C)Cc2c(F)cccc2Cl)C1=O (configuration not stated)	-8	-7	-16	-16	i	9	2	4
CN(C)CC/C=C1/c2ccccc2COc2ccc(CC(=O)O)cc21	.	.	.	-13	i	4	-2	-1
CCN(CC)CC1CCCCN1CC(=O)N1c2ccccc2C(=O)Nc2cccnc21 (configuration not stated)	8	7	.	-1	i	.	.	.
O=C(NC1CCN(CCc2c[nH]c3ccccc23)CC1)c1ccccc1	0	-9	10	.	i	-1	-3	5
O=[N+]([O-])c1cncn1CCN1CCOCC1	.	.	-14	.	.	-13	1	2
CCCOc1ccc2nc(NC(=O)OC)[nH]c2c1	10	7	.	.	i	.	.	.
Cc1scc2c1N(C(=O)CN1CCN(C)CC1)c1ccccc1NC2=O	-5	-3	-9	-9	i	-8	-1	-5
CC1O[C@@H](OCC2O[C@@H](Oc3cc(O)c4c(c3)OC(c3ccc(O)cc3)CC4=O)[C@H](O)[C@@H](O)[C@@H]2O)[C@H](O)[C@H](O)[C@H]1O (some centres not stated)	.	.	.	1	.	-7	1	2
O=C(O)Cc1sc(-c2ccccc2)nc1-c1ccc(Cl)cc1	.	.	0	.	.	-22	-4	5
CC[C@]12CCCN3CCc4c(n(c5ccccc45)[C@](O)(C(=O)OC)C1)[C@@H]32	.	.	15	-15	.	-8	-1	-3
COc1cc(C2Oc3cc(C4Oc5cc(O)cc(O)c5C(=O)C4O)ccc3OC2CO)ccc1O (configuration not stated)	1	4	38	-10	i	-8	-8	-7

Structural class: the entries above with a COOH group.
SMILES	eIF4H FP inh	PABP polyA inh	Env fusion inh	CSC inhib	Rce1 inh	Yeast UUG start	MT1-MMP act inh	MT1-MMP act inh RFP
CCc1cccc(CC)c1NC(=O)CN(CC(=O)O)CC(=O)O	.	.	11	5	.	-17	3	0
O=C(O)c1cc(=O)c2ccccc2o1	0	-2	-2	-23	i	-9	0	5
CN(C)CC/C=C1/c2ccccc2COc2ccc(CC(=O)O)cc21	.	.	.	-13	i	4	-2	-1
O=C(O)Cc1sc(-c2ccccc2)nc1-c1ccc(Cl)cc1	.	.	0	.	.	-22	-4	5

Later entries:
SMILES	eIF4H FP inh	PABP polyA inh	Env fusion inh	CSC inhib	Rce1 inh	Yeast UUG start	MT1-MMP act inh	MT1-MMP act inh RFP
CCC(C(=O)Nc1ccccc1N1CCCC1)c1ccccc1 (configuration not stated)	-12	-9	2	7	i	-1	-2	0
Cc1cc(=O)oc2cc(O)ccc12	.	.	.	-7	?	-22	-3	5
CCCCOc1cc(C(=O)OCCN(CC)CC)ccc1N	.	.	-4&11	55&62	i	-8&-18	3&-1	3&4
Cn1ccc2cc3c(cc21)CCN3C(=O)Nc1cccnc1	.	.	6	-17	.	-11	4	7
CC1(C)O[C@@H]2C[C@H]3[C@@H]4C[C@H](F)C5=CC(=O)C=C[C@]5(C)[C@@]4(F)[C@@H](O)C[C@]3(C)[C@]2(C(=O)CO)O1	-6	2	i	-4	i	-1	-3	4
Cc1c(C)n(Cc2ccccc2)c2ccc(C(=O)OCCN(C)C)cc12	13	-3	4	85*	i	-4	-11	-10
CCc1ccccc1OC[C@@H](O)CN[C@H]1CCCc2ccccc21	.	.	0	6	.	-7	-2	0
CN(C)CCCSc1ccccc1NC(=O)/C=C/c1ccccc1	1	-2	.	2	i	.	.	.
CC(=O)Oc1ccc2c(C)cc(=O)oc2c1	-6	5	.	0	i	.	-3	3
C[C@@H]1C[C@H]2[C@@H]3CCC4=CC(=O)C=C[C@]4(C)[C@@]3(Cl)[C@@H](O)C[C@]2(C)[C@@]1(OC(=O)c1ccco1)C(=O)CCl	.	.	i	31	.	-16	-30	-25
Nc1ncnc2c1c(-c1ccc(Oc3ccccc3)cc1)cn2C1CCCC1	.	.	-6	121*	.	2	-3	-18
CCCC(=O)O[C@]1(C(=O)COC(C)=O)CC[C@H]2[C@@H]3C[C@H](F)C4=CC(=O)C=C[C@]4(C)[C@@]3(F)[C@@H](O)C[C@@]21C	-4	-2	i	-4	i	-3	-4	-2
CN(C)C/C=C(\c1ccc(Br)cc1)c1cccnc1	.	.	-2	-15	.	0	-2	1
O=C(Nc1cc(-c2ccccc2)nn1-c1ccccc1F)c1ccc([N+](=O)[O-])cc1	.	.	-17	1	.	12	-2	-8

One compound at a time (already shown).
Profile of CN(C)C/C=C(\c1ccc(Br)cc1)c1cccnc1 → eIF4H FP inh: .; PABP polyA inh: .; Env fusion inh: -2; CSC inhib: -15; Rce1 inh: .; Yeast UUG start: 0; MT1-MMP act inh: -2; MT1-MMP act inh RFP: 1
Profile of CCc1ccccc1OC[C@@H](O)CN[C@H]1CCCc2ccccc21 → eIF4H FP inh: .; PABP polyA inh: .; Env fusion inh: 0; CSC inhib: 6; Rce1 inh: .; Yeast UUG start: -7; MT1-MMP act inh: -2; MT1-MMP act inh RFP: 0
